TRPV1 PAM = enhances activation of the human vanilloid receptor TRPV1; TRPV1-expressing cells, Fluo-8 calcium influx, capsaicin EC20 potentiation; host cell line not named in the record; control for the full effect not named in the record; potentiation, % at 8.33 µM; Q8NER1; 320,000 compounds, 0.02% hits; active means potentiation above 80%; inconclusive means 30% to 80%; inactive means below 30%; also: 0% is about no effect
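TRPV1-expressing cells were cultured overnight at 35.5C and loaded with Fluo-8 calcium dye for 40 to 90 min at room temperature. After a 10 s baseline, compound was added and calcium influx was read kinetically for 3 min (ex 480/em 520 nm).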
D2 agonist = human D2 receptor agonism in beta-arrestin assay | P14416 | DiscoveRx PathHunter D2 beta-arrestin, luminescence, 90 min; 100% = 57 uM dopamine signal | activation, % (concentration not given with the values) | 360,000 compounds, 0.084% hits | AID 624465; in the data active = activation above about 40%; inconclusive = about 15% to 40%; inactive = below about 15%; also: the text of the record calls up to 30% inactive
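Agonist mode: compounds alone added to overnight-plated D2 PathHunter cells for 90 min at 37 C, with 57 uM final dopamine (EC100) defining full response. Beta-arrestin recruitment detected by chemiluminescent reagent, read after 1 h at ambient temperature.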
Sfp inh = Sfp phosphopantetheinyl transferase inhibition; Q9F4F7; Biochemical Sfp PPTase activity, qHTS; Potency, µM, for inactives: max response, negative = inhibition, hits mostly inhibitors; 310,000 compounds, 3.5% hits; AID 1490; active = well fitted inhibition curve with a large enough effect; inconclusive = small, poorly fitted or top-dose-only effect, or another doubt; inactive = no such curve, though single readings can be large or run the other way;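 also: the enzyme is Sfp with the accession as filed and its product quenches rhodamine fluorescence; potency is read from the fitted curve at half-maximal effect; 0% = enzyme reaction without inhibitor and -100% = no enzyme wells; top concentration of the series not given in the record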
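With Hepes-Na pH 7.6 buffer containing 10 mM MgCl2, Sfp (15 nM) modified BHQ-2-YbbR (12.5 uM) using rhodamine-CoA (5 uM). Two reads 30 minutes apart at 525/598 nm yielded each well's rate.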
Six1-Eya2 inh = blocks human Six1 binding to Eya2; AlphaScreen GST-Six1/His-Eya2 binding, biochemical; hits give low values; control for the full effect not named in the record; 360,000 compounds, 0.56% hits; activity change, % (concentration not given with the values); Q15475+O00167; in the data active = activity change below about -65%; inconclusive = about -30% to -65%; inactive = above about -30%; also: % is scaled to controls: 0 for no effect and ±100 for the full control effect
Target sequence (O00167 whole entry, looked up): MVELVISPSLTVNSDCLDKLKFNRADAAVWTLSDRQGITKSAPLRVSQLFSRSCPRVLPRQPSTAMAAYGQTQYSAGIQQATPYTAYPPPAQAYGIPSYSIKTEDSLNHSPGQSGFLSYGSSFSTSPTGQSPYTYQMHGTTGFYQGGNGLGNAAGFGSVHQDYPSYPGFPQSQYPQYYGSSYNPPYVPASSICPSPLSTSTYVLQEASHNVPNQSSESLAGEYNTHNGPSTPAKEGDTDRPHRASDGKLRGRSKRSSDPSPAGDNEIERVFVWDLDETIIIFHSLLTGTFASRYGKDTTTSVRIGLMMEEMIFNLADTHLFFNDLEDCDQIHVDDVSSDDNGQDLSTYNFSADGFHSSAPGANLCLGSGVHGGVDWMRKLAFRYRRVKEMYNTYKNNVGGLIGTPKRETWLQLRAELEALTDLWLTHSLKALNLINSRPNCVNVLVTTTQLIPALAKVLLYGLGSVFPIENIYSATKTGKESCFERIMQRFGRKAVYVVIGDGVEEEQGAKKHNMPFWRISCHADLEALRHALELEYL
Target sequence (Q15475 whole entry, looked up): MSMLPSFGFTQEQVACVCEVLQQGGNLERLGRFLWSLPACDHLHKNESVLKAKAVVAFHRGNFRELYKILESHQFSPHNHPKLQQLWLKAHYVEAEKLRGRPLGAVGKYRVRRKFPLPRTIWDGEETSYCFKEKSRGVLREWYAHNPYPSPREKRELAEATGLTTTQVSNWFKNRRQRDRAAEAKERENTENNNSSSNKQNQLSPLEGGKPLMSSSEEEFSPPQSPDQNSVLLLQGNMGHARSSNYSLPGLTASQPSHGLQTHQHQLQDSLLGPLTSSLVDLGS
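Compounds are tested against tagged Six1 and Eya2 proteins bridged by glutathione donor and nickel acceptor beads; after a one-hour incubation at 37 °C without light, AlphaScreen emission is recorded.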
D2 PAM = positive allosteric modulators of human D2 dopamine receptor. P14416. DiscoveRx D2 beta-arrestin cells, luminescence, 90 min; 100% = 57 uM dopamine signal. potentiation, % (test concentration not listed). 360,000 compounds, 0.23% hits. AID 624464; active = potentiation of 50% or more; inconclusive = 30% to 50%; inactive = 30% or less;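 also: compound concentration not given in the record; tested on top of an EC20 dose of dopamine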
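D2 cells co-treated with compound plus 50 nM dopamine (EC20) for 90 min at 37 deg C to detect potentiation. Beta-arrestin recruitment was read as enzyme-fragment luminescence after 1 h at ambient temperature. Full response was set by 57 uM dopamine.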
PINK1 modulator = changes PINK1 expression | Potency, µM (doses to about 76.6 µM), for the others: at the highest dose activation (PINK1 increase), most hits filed as activators | 410,000 compounds, 0.2% hits | PINK1 immunofluorescence, high-content cytometry, 24 h; active = well fitted activation curve with a large enough effect; inconclusive = small, poorly fitted or top-dose-only effect; inactive = flat fitted curve, though single readings scatter; cell line not stated here;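 also: potency is read from the fitted curve at half-maximal effect; % of control where 0% means no effect; nearly all actives have a fitted effect of over 65% in size; a mitochondrial uncoupler was the plate control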
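Cells are seeded, rested 12 hours, then given compound at five concentrations or DMSO for 24 hours. After fixation, blocking and antibody staining, PINK1 amount and mitochondrial localization are scored; CCCP serves as control.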
CtBP-E1A inh = inhibitors of CtBP/E1A interaction | AlphaScreen GST-E1A/His-CtBP binding, 1536-well; hits give low values; control for the full effect not named in the record | AID 651724 | 340,000 compounds, 0.49% hits | activity change, % (no concentration beside the values); in the data active means activity change below about -65%; inconclusive means about -30% to -65%; inactive means above about -30%; also: % is scaled to controls: 0 for no effect and ±100 for the full control effect
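GST-E1A and His-tagged CtBP (125 nM each as 5X stock) were preincubated with pin-transferred compound for 2 h at 37 °C in the dark, then glutathione donor and nickel acceptor beads were added for 1 h before AlphaScreen reading.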
The depositor's hits bear a star; ? = inconclusive; nt = not tested or not shown; [ ] = dose if it differs, or a comment.

SMILES	TRPV1 PAM	D2 agonist	Sfp inh	Six1-Eya2 inh	D2 PAM	PINK1 modulator	CtBP-E1A inh
CCOCCCNC(=O)c1ccc2c(c1)N(CC)C(=O)c1ccccc1S2=O (centres undefined)	-6	-6.8	13%	6	-31	3.3%	7
COc1ccc(CNC(=O)C(C)N(Cc2ccccc2OC)C(=O)c2snc(C(N)=O)c2N)cc1 (centres undefined)	-16	11	6%	-2	7	-0.9%	-7
O=c1c(=Nc2ccccc2O)c(=O)c2ccccc12	1	3.8	-13%	15	-16	-0.9%	nt
c1csc(-c2nn3c(Cn4nnc5ccccc54)nnc3s2)c1	-11	0.2	9%	6	-6	1.2%[38.3 µM]	4
O=C(O)C(Cc1ccc(Cl)cc1)NS(=O)(=O)c1ccc(Cl)cc1 (centres undefined)	6	-1.7	3%	4	-2	-0.4%	6
Cc1ccc2nc(-c3ccccc3)cc(C(=O)N(C)CC(=O)Nc3ccccc3Br)c2c1	5	-3.2	nt	5	11	-0.4%	-6
CC1CN(Cc2ccccc2)c2ccccc2NC1=S (centres undefined)	-11	-2.3	2%	-29	-13	8.1%	-18
COc1ccc(-c2nnc(SCC(=O)c3cc(C)n(Cc4cccs4)c3C)o2)cc1	21	-0.5	-28%	2	18	7.4%	-2
Cc1ccc(S(=O)(=O)N2C(=O)C(c3ccccc3)SC2=Nc2ccccc2)cc1 (centres undefined)	6	-7.0	20µM*	-4	-19	2.1%	6
Cc1cc(NC(=O)c2cccc(S(=O)(=O)N3CCCCC3)c2)no1	-22	-2.0	12%	0	-5	-2.6%	-2
C/C=C(/CCC1NCCc2c1[nH]c1ccccc21)[Si](C)(C)C (centres undefined)	nt	3.7	nt	-13	-29	-5.4%	-5
CCN(/C=N/S(=O)(=O)c1ccc(Cl)cc1)CC	-1	1.2	13%	8	4	0.3%	14
COc1ccc2oc(C(=O)OCC(=O)N3CCC(C)CC3)c(C)c2c1	-10	0.4	1%	-5	-13	0.4%	-4
COc1ccc(S(=O)(=O)N(C)C[C@H]2Oc3ccc(NC(=O)Nc4ccc5c(c4)OCO5)cc3CC(=O)N([C@@H](C)CO)C[C@@H]2C)cc1	nt	0.6	nt	-24	-9	1.6%	-22
N/C(Cn1cncn1)=N\NC(=O)C(=O)Nc1cccc(C(F)(F)F)c1	-20	-1.7	-13%	-10	0	2.4%	-28
COc1ccc(-c2noc(CN(C)C(=O)c3ccc4c(c3)OCO4)n2)cc1OC	-5	-0.8	-4%	5	-6	5.9%	20
COc1ccccc1N(Cc1ccccc1)S(=O)(=O)c1cccc(C(=O)N2CCCCC2)c1	nt	-2.4	nt	-2	-3	13%	6
CC1(Cc2cccc(C(F)(F)F)c2)C(=O)Nc2ccc(-c3ccc(F)c(Cl)c3)cc21 (centres undefined)	nt	-7.3	nt	2	-11	-1.2%	3
COc1ccc(NC(=O)C2(C)Cc3c(-c4ccc(N(C)C)cc4)ccnc3O2)cn1 (centres undefined)	nt	-3.5	nt	-23	-15	5.4%	-19
O=C(O)c1cccc(-n2cccc2/C=C2\SC(=O)N(Cc3ccccc3F)C2=O)c1	9	0.7	-8%	3	-6	-2.4%	14
CC(C)C(=O)NS(=O)(=O)c1ccc(NS(C)(=O)=O)cc1	-2	-2.1	19%	12	-1	1.6%	9
CC(=O)Nc1cccc(NC(=O)CSc2nn3c(=O)c(C)nnc3s2)c1	-4	-0.6	-6%	-73*	-4	2.0%	-88*
S=C(NCc1ccc2c(c1)OCO2)NCc1ccco1	-26	-4.5	40µM*	0	-18	0.8%	-13
COC(=O)c1c(NS(C)(=O)=O)sc2c1CCCC2	0	-4.1	18µM*	-1	-9	-0.8%	2
CN=C(c1ccc(C)cc1)n1c(=S)nc(-c2ccc(C)cc2)n(C)c1=S	-8	-3.9	-106%	9	-7	0.8%	nt
O=C(NCc1ccccn1)c1cc(-c2ccc(Br)cc2)nc2ccccc12	-16	-0.2	4%	4	-21	3.8%	4
O=C(C[C@@H]1C/C=C\CC[C@@H](Cc2ccc(F)cc2)C(=O)OC[C@@H]2CCCN2C1=O)NCCO	nt	-0.5	nt	4	-7	-0.2%	2
Cc1[nH]c(=O)[nH]c(=O)c1S(=O)(=O)N(C)Cc1ccccc1	nt	-1.9	-7%	12	2	-1.1%	-2
CCC(C)Sc1nc2c(c(=O)n1C)SC(C)C2 (centres undefined)	5	-0.9	13%	-6	1	0.8%	-4
CCNC(=S)N1CCCC(c2nc3ccc(C)cc3[nH]2)C1 (centres undefined)	7	7.1	12%	0	8	-1.6%	nt
CC#CC[N+](C)(C)CCCCCCCCCC	25	-0.2	?	11	-3	0.6%	12
CN(C(=O)CC1C(=O)NCCN1Cc1ccc(F)c(F)c1)C1CCOCC1 (centres undefined)	-3	2.2	4%	-9	4	-0.2%	2
O=C1CC(c2ccccc2F)c2cc3c(cc2N1)CCC3 (centres undefined)	-6	3.8	7%	-2	-2	17%[38.3 µM]	4
CCN1C(=O)C(CC(=O)Nc2ccc(OC)cc2)N(CCc2ccccc2F)C1=S (centres undefined)	17	-2.3	2%	3	-5	?	-5
CCOc1cc(C)c(Cl)cc1S(=O)(=O)NC1CC(C)(C)NC(C)(C)C1	3	-3.3	-4%	-3	-5	0.1%	2
Cc1cnc(NS(=O)(=O)c2ccc(N)cc2)nc1-c1ccccc1O	nt	2.2	nt	0	-6	1.1%	0
COc1cccc(OCc2cc(C(=O)N3CCN(c4ccccc4O)CC3)no2)c1	-1	-2.9	1%	-6	3	-0.1%	-4
O=C(NC1CCCCC1)N1CCCC1	3	-1.1	17%	6	3	0.0%	0
CCCCC(=O)O[C@]1(C(=O)CO)CC[C@H]2[C@@H]3CCC4=CC(=O)CC[C@]4(C)[C@H]3[C@@H](O)C[C@@]21C	-1	3.2	11%	0	-10	3.1%	0
CCN(CC)c1ccc(NC(=O)CC2Oc3ccccc3NC2=O)c(C)c1 (centres undefined)	-1	3.6	?	-8	2	9.2%	3
COCC(=O)Nc1ccc2c(c1)OCC(=O)N2Cc1ccc(C)cc1	-6	0.2	18%	2	0	-0.6%	-3
Nc1c(-c2ccc3c(c2)OCCO3)oc2ccccc2c1=O	12	-1.6	-6%	31	-3	1.8%	20
CC1CCC(NC(=O)c2ccc(S(C)(=O)=O)cc2)CC1 (centres undefined)	-5	-0.1	19%	13	-8	-0.3%	6
Cc1c(OC(C)C(=O)NCC(O)c2ccccc2)ccc2c3c(c(=O)oc12)CCCC3 (centres undefined)	30	5.9	-11%	-12	-31	-0.4%	-22
COc1cc(/C=C(/C#N)c2nc3ccccc3[nH]2)ccc1OC(=O)c1ccco1	5	2.1	4%	-18	-14	-4.0%[38.3 µM]	15
CCC1Sc2ccc(S(=O)(=O)CCC(=O)Nc3ccccc3Br)cc2NC1=O (centres undefined)	10	-1.2	12%	2	-1	0.6%	1
COCCN1CCN(C(=O)c2ccc3oc(CCc4ccccc4)nc3c2)CC1	0	-2.9	14%	0	19	-1.3%	2
O=C(CCCn1cncn1)N1CCCC(N2CCN(c3ccc(F)cc3)CC2)C1 (centres undefined)	-4	-3.8	15%	0	-4	1.4%	6

Next part; the last four above are carried over.
SMILES	TRPV1 PAM	D2 agonist	Sfp inh	Six1-Eya2 inh	D2 PAM	PINK1 modulator	CtBP-E1A inh
COc1cc(/C=C(/C#N)c2nc3ccccc3[nH]2)ccc1OC(=O)c1ccco1	5	2.1	4%	-18	-14	-4.0%[38.3 µM]	15
CCC1Sc2ccc(S(=O)(=O)CCC(=O)Nc3ccccc3Br)cc2NC1=O (centres undefined)	10	-1.2	12%	2	-1	0.6%	1
COCCN1CCN(C(=O)c2ccc3oc(CCc4ccccc4)nc3c2)CC1	0	-2.9	14%	0	19	-1.3%	2
O=C(CCCn1cncn1)N1CCCC(N2CCN(c3ccc(F)cc3)CC2)C1 (centres undefined)	-4	-3.8	15%	0	-4	1.4%	6
COCCN(Cc1ccc(OC)cc1)c1c(C)nc2ccc(C(=O)NCCc3c[nH]c4ccccc34)cn12	nt	-3.6	nt	-7	-9	-0.8%	-7
COCCNC(=O)C1CCCN(C(=O)c2ccc3sccc3c2)CC1 (centres undefined)	nt	-6.8	nt	0	-6	0.3%	-2
O=C1C(=Cc2cccn2-c2ccc(O)cc2)C(=O)c2ccccc21	9	-2.9	-13%	15	-17	?	0
Cc1cc2ncn(CCC(=O)NC(C)(C)C)c2cc1C	-7	-0.4	6%	-2	-1	1.8%	7
Nn1c(SCc2cccc(Cl)c2)nnc1-c1ccncc1	5	3.5	9%	-2	-5	2.5%	-3
O=C(COC(=O)c1cccnc1)Nc1ccc(F)cc1	8	-1.3	7%	1	5	0.3%	2
CC(=O)c1ccc(C(=O)N(CCN(C)C)c2nc3c(Cl)cccc3s2)cc1	24	-4.7	12%	12	-19	0.2%	-7
O=C(NC1CCCCC1)C(c1ccc(F)cc1)N(CCc1ccccc1)C(=O)CN1C(=O)c2ccccc2S1(=O)=O (centres undefined)	2	-1.8	30%	-7	-18	1.3%	-3
COC(=O)c1c(C)oc(C)c1S(=O)(=O)Nc1ccccc1	4	-4.8	12%	-1	-7	-0.2%	6
N#Cc1cccc(OCC(=O)NC(=O)NCc2ccccc2)c1	-12	-0.2	13%	-1	3	0.0%	-19
O=C(CC(c1ccc(F)cc1)c1ccco1)N1CCCC1 (centres undefined)	1	-2.3	32µM*	0	1	0.9%	13
O=C(CN(C1CCCCC1)S(=O)(=O)c1ccc(F)cc1)Nc1ccc2c(c1)OCO2	-1	-1.9	1%	-9	-11	-1.0%	-6
CCOc1ccc(CC(=O)C2C(=O)CCCC2=O)cc1OCC	-2	-1.5	?	13	-5	-2.0%	-2
COc1ccc(CNC(=O)c2cccc3c(-c4cccnc4)coc23)cc1OC	nt	7.9	nt	?	-5	0.1%	-28
CN(C)c1ccc(C(=O)NC2(N3CCC3=O)CCCC2)cc1	-12	2.1	3%	-5	-7	1.7%	-2
C=CCc1cccc(C=Nc2cccn3cc(-c4ccccc4)nc23)c1O	-1	7.7	-2%	12	9	17%	-1
Cc1nn(-c2ccccc2)c(C)c1C(=O)NCc1ccccc1F	1	-1.7	8%	0	6	0.7%	4
COc1ccc(N2CCC(CNC(=S)Nc3cccc(C)c3)C2)cc1 (centres undefined)	3	-0.8	-11%	?	-16	6.6%	?

Bioassay records deposited in PubChem by National Center for Advancing Translational Sciences (NCATS).
